Bioassay records deposited in PubChem BioAssay by National Center for Advancing Translational Sciences (NCATS).
HSD17B inhib: blocks hydroxysteroid 17-beta dehydrogenase activity | AID 893 | recombinant HSD17B10, NADH fluorescence kinetic; many of its hits are not listed in these tables | 75,000 compounds, 7.6% hits | Q99714 | Potency, µM (titrated, usually from 57.1 µM), without a hit: at the highest dose activity change, negative = inhibition, actives largely listed as inhibitors; active means well fitted inhibition curve with a large enough effect; inconclusive means small, poorly fitted or top-dose-only effect; inactive means no such curve, though single readings can be large or run the other way;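 further: the protocol describes HADH2 (HSD17B10) and not the HSD17B4 of the title; nearly all actives have a fitted effect of over 70% in size; most hits overshoot -100% by far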
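Activity followed as NADH fluorescence increase (ex 360, em 450 nm) every 30 seconds for 4 min, using final 90 uM beta-hydroxybutyryl CoA and 1 mM NAD+. Recombinant His-tagged enzyme, 20 nM, pH 9.0 Tris buffer, 15 min compound preincubation.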
* = called active by the depositor; ? = inconclusive; & = joins results of further samples; [ ] = dose if it differs, or a comment. On the % scale 0 is the no-effect control and ±100 the full control effect; potency means the concentration at half of the fitted maximal effect. An excerpt. The share of hits here may be higher or lower than overall.

SMILES	HSD17B inhib
COc1ccc(-c2cnnn2-c2ccc(NC(=O)c3ccco3)cc2)cc1OC	4%
Clc1ccc(CSc2ncnc3c2ncn3[C@@H]2CCCCO2)cc1	2%[11.4 µM]
CC1CCCN(c2nc3c(c(=O)[nH]c(=O)n3C)n2CCSc2ncccn2)C1 (stereo unspecified)	11%
COc1cc(C(=O)Nc2cc(Cl)ccc2C)c(-n2cnnn2)cc1OC	7%
CCCN(CCC)C(=O)Cn1ccc(=N)c2ccccc21	-9%
Cc1c(C(=O)NCc2ccc3c(c2)OCO3)oc2ccccc12	-7%
CCCNC(=O)c1cccc(Cn2nc(C)c(Br)c2C)c1	-19%
CCSc1nnc(NC(=O)c2cc(C)on2)s1	-3%
NC(=O)CN1CCCN(S(=O)(=O)c2ccc(Br)cc2)CC1	-2%
O=C(O)C1CCCN(S(=O)(=O)c2cccc3cccnc23)C1 (stereo unspecified)	-1%

Next section; the last seven above are carried over.
SMILES	HSD17B inhib
COc1cc(C(=O)Nc2cc(Cl)ccc2C)c(-n2cnnn2)cc1OC	7%
CCCN(CCC)C(=O)Cn1ccc(=N)c2ccccc21	-9%
Cc1c(C(=O)NCc2ccc3c(c2)OCO3)oc2ccccc12	-7%
CCCNC(=O)c1cccc(Cn2nc(C)c(Br)c2C)c1	-19%
CCSc1nnc(NC(=O)c2cc(C)on2)s1	-3%
NC(=O)CN1CCCN(S(=O)(=O)c2ccc(Br)cc2)CC1	-2%
O=C(O)C1CCCN(S(=O)(=O)c2cccc3cccnc23)C1 (stereo unspecified)	-1%
O=C(CN1CCN(Cc2ccccc2F)C1=O)NCCN1CCOCC1	6%
CN(C)CCC(=O)c1ccc2c(c1)OCO2	-28%
Cn1cnc2c1c(=O)n(Cc1c(Cl)cccc1Cl)c(=O)n2C	9%
CCOC(=O)Cc1csc(NC(=O)COc2ccccc2)n1	10%
Cc1cc(S(=O)(=O)NC2CCCCC2)c(C)s1	-9%
CS(=O)(=O)N(CC(=O)NCc1ccc2c(c1)OCO2)c1ccc(Cl)cc1	9%
COC(=O)c1cc(NC(=O)C23CCC(C)(C(=O)O2)C3(C)C)cc(C(=O)OC)c1 (stereo unspecified)	-3%
Cc1c(CN2CCCCC2)c(O)n(CCCO)c(=O)c1C#N	-22%
CCCc1[nH]nc2c1C(c1ccc(OCCN3CCOCC3)c(OC)c1)C(C#N)=C(N)O2 (stereo unspecified)	8%
COc1ccc(CNS(=O)(=O)c2ccc(OC)cc2)cc1	1%
COc1cccc(N2C(=O)c3ccncc3C2=O)c1	-6%
COc1ccc(CCNC(=O)Cn2cnc3c(nnn3Cc3ccc(C)cc3)c2=O)cc1OC	0%
COc1cc(C(=O)O)c([N+](=O)[O-])c(OC)c1OC	3%[11.4 µM]
Nc1nc(NC(=O)CCCC(=O)O)nn1-c1ccccc1	8%
CCCC[S@@](=N)(=O)CC[C@@H](N)C(=O)O	-5%&-1%
CCOC(=O)c1ccc(N=c2sc(C(=O)OC)cc(=O)n2CCCN2CCOCC2)cc1	1%
COC(=O)c1c(C)oc2ccc(NS(=O)(=O)c3cc(OC)ccc3OC)cc12	2%
Cc1ccc(-c2nc(CS(=O)(=O)CC(=O)N3CCCCCC3)c(C)o2)cc1	-2%
O=C(c1ccco1)N1CCC2(CCN(Cc3nccs3)CC2)CC1	3%
O=S(=O)(NCc1ccco1)c1cccc2cccnc12	2%
CCn1cc(C(=O)OCC(=O)Nc2c(C)n(C)n(-c3ccccc3)c2=O)c(=O)c2ccc(C)nc21	5%
Cc1conc1NC(c1cccs1)c1ccc2cccnc2c1O (stereo unspecified)	?
COCCNC(=O)c1ccccc1-c1nc(-c2ccccc2OC)no1	7%
Fc1ccccc1N1CCN(c2ncnc3[nH]ncc23)CC1	-9%
COc1ccc(OCC(=O)NC2CC(C)(C)NC(C)(C)C2)cc1	-4%
O=C(Cc1ccccc1)NCCSCc1ccco1	-10%
C[N+](C)(N)Cc1nc(-c2ccc(Cl)cc2)no1	2%[11.4 µM]
Cc1ccc(Cn2c(Sc3ncccn3)nc3c2c(=O)[nH]c(=O)n3C)cc1	-3%
CS(=O)(=O)N1CCCC(c2nc(-c3ccc(S(=O)(=O)NCc4ccccc4)cc3)no2)C1 (stereo unspecified)	-3%
O=C1c2ccccc2C(O)N1Cc1ccccc1Cl (stereo unspecified)	2%
N#Cc1ccc(CN2CC[C@@]3(CCCN(C(=O)c4ccco4)C3)C2)cc1	-2%
CCOC(=O)c1cc(-c2ccccc2)sc1NC(=O)CSc1nnnn1C	-18%
O=C(CSCc1n[nH]c(=O)[nH]1)NCCOc1cccc(Oc2ccccc2)c1	5%
CC(Oc1ccc(C(=O)NC2CCCCC2)cc1)C(=O)O (stereo unspecified)	5%
COc1ccc2nc(N3CCCC3)[nH]c2c1	1%
Cc1cc2nnc(SC(C)C#N)n2c2ccccc12 (stereo unspecified)	-10%
CCOC(=O)N1CCC(N(CCOC)C(=O)Nc2ccc(Cl)c(Cl)c2)CC1	-3%
CCn1c(NC(=O)c2cccs2)c(-c2cccs2)c(=O)c2ccccc21	-1%
COc1ccc(N2CCN(c3nc(=S)n(-c4ccccc4)c(C)c3C(C)=O)CC2)cc1	?
CCOC(=O)c1cccc(NC(=O)CSc2nnc(COc3ccccc3)n2CC)c1	-11%

Next part; the last four above are carried over.
SMILES	HSD17B inhib
CCOC(=O)N1CCC(N(CCOC)C(=O)Nc2ccc(Cl)c(Cl)c2)CC1	-3%
CCn1c(NC(=O)c2cccs2)c(-c2cccs2)c(=O)c2ccccc21	-1%
COc1ccc(N2CCN(c3nc(=S)n(-c4ccccc4)c(C)c3C(C)=O)CC2)cc1	?
CCOC(=O)c1cccc(NC(=O)CSc2nnc(COc3ccccc3)n2CC)c1	-11%
CC1CN(Cc2nc3c(c(=O)[nH]c(=O)n3C)n2CCCc2ccccc2)CC(C)O1 (stereo unspecified)	9%
CCCCCCCCCCCCCCCCCC(=O)O[C@H](CC(=O)O)C[N+](C)(C)C	2%
CCOc1ccc(-c2cc(C(=O)NCCCN3CCN(CC)CC3)c3ccccc3n2)cc1	32µM*
COC(=O)c1sc(NC(=O)COc2ccccc2)nc1C	0%
O=C(CCCCC(=O)N1CCN(c2ccccc2)CC1)N1CCN(c2ccccc2)CC1	13%
Cc1cc(C)nc(SCC(=O)Nc2cc(C)on2)n1	7%
COc1ccc(C)cc1NC(=O)c1ccc(N(C)S(C)(=O)=O)cc1	6%
CCc1ccccc1N1C(=O)C2CC(C)=C(C)CC2C1=O (stereo unspecified)	7%
O=C(CN1C(=O)C2CCCN2C(=O)c2ccccc21)Nc1ccccc1-n1cccc1 (stereo unspecified)	5%
Cc1cc2oc(=O)cc(CN3CCc4ccccc43)c2cc1Cl	-2%
CCOc1cc(NC(=O)C2CC2)c(OCC)cc1NC(=O)c1cccnc1	-19%
O=C(Nc1ccc(N2CCCC2=O)cc1)c1cccc(F)c1	8%
CNC(=O)[C@@]1(Cc2ccccc2)C=C[C@@H](C)N1C(C)=O	-1%
CCCn1c(C)nc2c(NCCO)nc(C)nc21	-5%
CCOC(=O)C1C(=O)Nc2nc(C)nn2C1c1ccccc1 (stereo unspecified)	-5%
O=C(NCc1cccs1)C1CCCN(S(=O)(=O)c2cnc[nH]2)C1 (stereo unspecified)	8%
CCc1noc(C)c1C(=O)N1CCOCC1	3%
c1coc(CNc2nc(-c3ccncc3)cs2)c1	-2%
CCNc1oc(COc2cccc(C)c2)nc1C#N	4%
COc1ccc(C2CC(C(F)(F)F)n3nc(C(=O)NCCN4CCOCC4)cc3N2)cc1 (stereo unspecified)	12%
Cc1cccc(CC(=O)Nc2cc(=O)n(C)c(=O)n2C)c1	5%
CC1CCCN(C(=O)C23CCC(C)(C(=O)C2)C3(C)C)C1 (stereo unspecified)	11%
COc1ccccc1-c1cc(C(=O)Nc2ccccc2SC)no1	?
Cn1c2ccccc2c2c(C(=O)NCC3CCCO3)cn(C3CCCC3)c(=O)c21 (stereo unspecified)	25µM*
CC(=O)OCC(=O)[C@@]1(O)CCC2C3CC(C)C4=CC(=O)C=CC4(C)C3C(O)CC21C (stereo partly specified)	-4%
COc1ccc(N2C(=O)CC(c3ccc(OC(C)C)cc3)C2=O)cc1 (stereo unspecified)	14%
CCOC(=O)CSC1=C(C#N)C(c2ccccc2F)C(C(C)=O)=C(C)N1 (stereo unspecified)	-4%
COc1ccc(NC(=O)Cn2nnc(-c3ccccc3NC(=O)C3CC3)n2)cc1	15%
CC(CCc1ccco1)NC(=O)CSc1cc(=O)n(C)c2ccccc12 (stereo unspecified)	-12%
CN1CC[C@@]2(CCCN(C(=O)c3cccn3C)C2)C1	6%
FC(F)(F)COc1nc(N2CCCCC2)nc(N2CCNCC2)n1	1%
CCn1c(SCC(=O)N2CCCc3ccccc32)nc2c(c1=O)SC(C)C2 (stereo unspecified)	-18%
CCc1ccc(OCC(=O)OC2CCS(=O)(=O)C2)cc1 (stereo unspecified)	2%
Cc1cc(C)n(-c2ccc(-n3ccnc3)nn2)n1	6%
COc1ccccc1NC(=O)C1CCCCC1	3%
Cn1nnnc1SCC(=O)NCc1cccc(C(=O)O)c1	2%
c1ccc2c(c1)oc1c(NCc3ccc4c(c3)OCO4)ncnc12	-8%
CC(C)=C[C@H]1[C@@H](COC(=O)c2cc3c(cc2Cl)OCO3)C1(C)C	1%[11.4 µM]
COc1ccc(Cn2c(C)ccc2C)cc1	-2%
Cn1c(N2CCCC2)nc2c1c(=O)n(Cc1ccc(F)cc1)c(=O)n2C	-7%
COc1ccc(C(=S)N2CCN(C)CC2)cc1Br	-6%
CCCCOC(=O)Nc1ccc(N2CCCCC2)cc1	-3%
Cc1ccc(S(=O)(=O)N[C@H]2COC(=O)[C@@H](C)COC(=O)[C@H](C)NC(=O)C/C=C\[C@H]2C)cc1	4%[11.4 µM]
COc1cccc(-c2cc(C(=O)Nc3c(C)nn(Cc4ccccc4C)c3C)no2)c1	-6%
CCC(C)OC(=O)C1=C(C)NC2=C(C(=O)C(C(=O)OC)C(C)C2)C1c1ccc(N(C)C)cc1 (stereo unspecified)	-5%
CN(CCc1ccc(Cl)c(Cl)c1)C[C@@H](O)COc1ccc(NS(C)(=O)=O)cc1	-6%
CCN(CC)C(=O)c1sc2nc(-c3ccncc3)[nH]c(=O)c2c1C	25µM*
C=CCn1c(SC/C=C/c2ccccc2)nnc1-c1sc(N)nc1C	-4%
CCOc1ccc(OCC)c(NC(=O)CC2Oc3ccc(C)cc3NC2=O)c1 (stereo unspecified)	3%
c1coc(C2Nc3ccccc3-c3nc4ccccc4n32)c1 (stereo unspecified)	13µM*
Additional compounds.
SMILES	HSD17B inhib
COC(=O)Cc1cc(=O)n(-c2ccccc2)[nH]1	14%
COCCCn1cnc2c(c1=O)c1nc3ccccc3nc1n2-c1ccc(C)cc1	9%
CN(C)Cc1ccc(O)c(CN(C)C)n1	8%[11.4 µM]
Cc1cc(C(=O)NCc2ccco2)cs1	6%
Cc1ccc2nc(SCC(=O)Nc3c(C)n(C)n(-c4ccccc4)c3=O)[nH]c2c1	1%
CCN(CC)CCSc1nc(O)c(-c2ccccc2)c(=O)[nH]1	-8%
Cn1c(=O)[nH]c(=O)c2c1nc(Br)n2Cc1ccccc1Cl	-3%
C#CC(C)OC(=O)c1nnc2c3ccccc3n(COC)c2n1 (stereo unspecified)	3%[11.4 µM]
CC(=O)OC(C)(C)C1Cc2cc3ccc(=O)oc3cc2O1 (stereo unspecified)	25µM*
Cc1ccc(CNS(=O)(=O)c2ccc(C(C)(C)C)cc2)n1C	-1%

Some of the entries so far, with bars between the fields.
SMILES | HSD17B inhib
COc1ccc2nc(N3CCCC3)[nH]c2c1 | 1%
Cc1cc2nnc(SC(C)C#N)n2c2ccccc12 (stereo unspecified) | -10%
CCOC(=O)N1CCC(N(CCOC)C(=O)Nc2ccc(Cl)c(Cl)c2)CC1 | -3%
CCn1c(NC(=O)c2cccs2)c(-c2cccs2)c(=O)c2ccccc21 | -1%
COc1ccc(N2CCN(c3nc(=S)n(-c4ccccc4)c(C)c3C(C)=O)CC2)cc1 | ?
CCOC(=O)c1cccc(NC(=O)CSc2nnc(COc3ccccc3)n2CC)c1 | -11%
CC1CN(Cc2nc3c(c(=O)[nH]c(=O)n3C)n2CCCc2ccccc2)CC(C)O1 (stereo unspecified) | 9%

New compounds follow.
SMILES	HSD17B inhib
CC1CCC(NC(=O)N(CCCl)N=O)CC1 (stereo unspecified)	0%
O=C(NCCC1=CCCCC1)C1CCN(S(=O)(=O)N2CCOCC2)CC1	3%
C=CCC1(O)C=CCC2C3C4C(OC(C)(C)C)C2C1C34 (stereo unspecified)	-1%[11.4 µM]
CCOc1ccc(C)cc1S(=O)(=O)n1ccnc1	-15%
Cc1ccc2c(c1)CC[C@H]1CC(=O)CC[C@@]21C	3%
O=C1c2ccccc2C(=O)N1CCCSc1ccccc1	-2%[11.4 µM]
CC(=O)OC1CC2C(C)(C)C(=O)C3OC3[C@]2(C)C2CC[C@@]3(C)C(c4ccoc4)OC(=O)C4OC43[C@]12C (stereo partly specified)	-9%
O=C(NCCN1CCOCC1)Nc1ccc(Cl)cc1	8%
Cc1ccc2[nH]c(=O)c(CN(CCCO)S(=O)(=O)c3cccc4nsnc34)cc2c1	6%
O=C(COc1ccc(S(=O)(=O)N2CCCC2)cc1Cl)NCc1ccco1	6%
COCCNc1ncnc2ccc(-c3ccccc3CN(C)C)cc12	5%
Cc1ccc(S(=O)(=O)N2CCCN(S(=O)(=O)C3CCS(=O)(=O)C3)CC2)cc1 (stereo unspecified)	-2%
Cc1ccnc(N2CCN(C(=O)CSc3nc4ccccc4nc3N3CCCCC3)CC2)c1	?
N#Cc1c(N)n(C2CCCCC2)c2nc3ccccc3nc12	6%
